# Source: PubChem (Center for Chemical Genomics, University of Michigan)
# HIV TAR-Tat: HIV-1 TAR-Tat binding disruption. HIV-1 TAR RNA, Tat peptide displacement FRET; stronger effect = higher value. z-score (test concentration not listed). 100,000 tested, 0.6% active. AID 1259389;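 further: score is relative to mean and SD of negative controls; some compounds called inactive have numbers as strong as hits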
# CDC25B CDK2 inh: human CDC25B-CDK2/CyclinA binding inhibition; P30305+P24941; HTRF CDC25B-CDK2/CyclinA binding, anti-His/anti-Flag; stronger effect = higher value; z-score (test concentration not listed); 94,000 tested, 0.72% active; AID 1259370;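 further: score is relative to mean and SD of negative controls; strong numbers were not always called active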
# Active calls of the source: *; nt = no result given.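 How the source made its calls: active means z-score from 3 up in half or more of its runs; inactive means the rest.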 Not a hit list; any-hit rate near 0.87%.
# Value order – HIV TAR-Tat	CDC25B CDK2 inh
> CN(C)c1ccc(/C=C/C2=Nc3ccccc3NC(C)(C)C2)cc1
 : -7.2	-2.6
> CS(=O)(=O)N1CCc2cc(C(=O)NC3CCCCC3)ccc21
 : -0.01	-0.46
> CN1CCN(C(=O)c2cc3nc(-c4ccccc4)cc(C(F)(F)F)n3n2)CC1
 : 6.1	-1.5
> c1ccc(C2=Nn3c(Cn4nnc5ccccc54)nnc3SC2)cc1
 : 3.3	-0.58
> Cc1cccc(Nc2nc3ccccc3nc2NS(=O)(=O)c2ccccc2)c1
 : nt	-1.8
> O=C(COc1ccc(Cl)cc1)N(Cc1ccco1)C1CCS(=O)(=O)C1 (stereo not drawn)
 : 2.2	-1.4
> c1ccc2c(c1)NC(C1Nc3ccccc3O1)O2 (stereo not drawn)
 : nt	-2.1
> COc1cc(C2c3c(oc4ccc(F)cc4c3=O)C(=O)N2Cc2ccccc2Cl)ccc1O (stereo not drawn)
 : -1.5	-0.09
> Cc1ccc(NS(=O)(=O)c2cc(-c3cc(C)no3)ccc2C(C)C)cc1
 : 2.2	nt
> CCC1CCCCN1C(=O)CSc1nc2ncccc2o1 (stereo not drawn)
 : 2.4	nt
> COC(=O)c1cc(NC(=O)COc2cc(C)c(Cl)c(C)c2)cc(C(=O)OC)c1
 : nt	-1.1
> CNC(=O)CSc1nc2c(cnn2-c2ccccc2)c(=O)[nH]1
 : 1.7	nt
> CCCOC(=O)C1=C(C)NC2=C(C(=O)CC(C)(C)C2)C1c1ccc(CC)cc1 (stereo not drawn)
 : 1.1	-1.7
> CCOC(=O)c1noc2nc(C)nc(N3CCC(N4CCCCC4)CC3)c12
 : -1.3	nt
> Cc1ccc(-n2ncc3c(NCC(C)O)ncnc32)cc1 (stereo not drawn)
 : -0.19	nt
> Cc1ccc(NC(=O)Nc2noc3c2COc2ccccc2-3)cc1F
 : 2.9	nt
> Cc1cc(OCC(=O)Nc2ncn[nH]2)c(C)c(C)c1Br
 : 1.6	-2.2
> CCCc1cc(=O)oc2cc(OC(=O)c3ccccc3Cl)ccc12
 : nt	-1.2
> CN(C(=O)c1ccc2c(=O)n3c(nc2c1)CCCCC3)c1cccc(C(F)(F)F)c1
 : nt	-1.5
> Cc1nn(C(C)C(=O)NCCc2ccc(Cl)cc2)c(=O)c2cc3sccc3n12 (stereo not drawn)
 : nt	-1
> CC1CCN(C(=O)Cn2cc(C(=O)C(C)(C)C)c3ccccc32)CC1
 : 0.3	-2.3
> CCOc1cc(CNc2ncn[nH]2)cc(Cl)c1OC
 : 0.61	-0.73
> CCCc1ccc2c(N)c(C(=O)c3ccccc3)sc2n1
 : 0.69	-1.1
> Cc1ccccc1-c1noc2ncnc(N3CCN(c4ccccn4)CC3)c12
 : 6.8	nt
> COc1ccccc1C1CC(=O)N2CN(C3CCCCC3)CSC2=C1C#N (stereo not drawn)
 : -0.27	2.5
> CCOC(=O)Cn1c(=O)oc2cc(S(=O)(=O)N(C)c3ccc(OC)cc3)ccc21
 : 0.84	-1.6
> CSc1ccc(C2C(C(=O)OCC3CCCO3)=C(C)NC3=C2C(=O)CCC3)cc1 (stereo not drawn)
 : 0.46	0.12
> CCOC(=O)CSC1=C(C#N)C(c2ccccc2Cl)C(C(=O)OCC)C(=O)N1 (stereo not drawn)
 : 0.05	-1.2
> CCOC(=O)C1CCN(C(=O)c2cc3c(=O)n(C)c4cc(Cl)ccc4c3s2)CC1
 : nt	-1.2
> O=S(=O)(c1cc(Cl)cc(Cl)c1)N1CCN(S(=O)(=O)c2cccs2)CC1
 : nt	-2.5

# An excerpt of these results, with bars between the fields.
SMILES | HIV TAR-Tat | CDC25B CDK2 inh
CS(=O)(=O)N1CCc2cc(C(=O)NC3CCCCC3)ccc21 | -0.01 | -0.46
CCOC(=O)C1CCN(C(=O)c2cc3c(=O)n(C)c4cc(Cl)ccc4c3s2)CC1 | nt | -1.2
O=C(COc1ccc(Cl)cc1)N(Cc1ccco1)C1CCS(=O)(=O)C1 (stereo not drawn) | 2.2 | -1.4
CN1CCN(C(=O)c2cc3nc(-c4ccccc4)cc(C(F)(F)F)n3n2)CC1 | 6.1 | -1.5
CCC1CCCCN1C(=O)CSc1nc2ncccc2o1 (stereo not drawn) | 2.4 | nt
CCCOC(=O)C1=C(C)NC2=C(C(=O)CC(C)(C)C2)C1c1ccc(CC)cc1 (stereo not drawn) | 1.1 | -1.7
c1ccc2c(c1)NC(C1Nc3ccccc3O1)O2 (stereo not drawn) | nt | -2.1

# (listing goes on)
# Value order – HIV TAR-Tat	CDC25B CDK2 inh
> CC(C)(C)c1ccc(NC(=O)CN2CCOCC2)c(NC(=O)c2ccco2)c1
 : nt	-1.4
> COc1ccc(O)c(C2=NN3C(C2)c2ccccc2OC3c2ccncc2)c1 (stereo not drawn)
 : 0.92	-0.99
> O=C(Cn1c(=O)c2cccn2c2cccnc21)N1CCN(c2ccc(F)cc2)CC1
 : -1.9	nt
> CC1CC(=O)Nc2cc(S(=O)(=O)N3CCc4ccccc4C3)ccc2S1 (stereo not drawn)
 : -0.06	nt
> CSc1ccc(C2c3c(oc4cc(C)cc(C)c4c3=O)C(=O)N2Cc2ccco2)cc1 (stereo not drawn)
 : 1	-0.6
> CCN(c1ccccc1)S(=O)(=O)c1cc(-c2cc(C)no2)ccc1C
 : -0.41	nt
> Cc1ccc2c(c1)N(CC(=O)c1ccc(F)cc1)C=NS2(=O)=O
 : 0.78	nt
> Cc1ccc(C(C)C)c(OCCSc2nc(-c3ccco3)nc3cc(=O)[nH]n23)c1
 : -1.6	nt
> CCOc1cccc2c1N[C@@H](c1ccc(C(=O)O)cc1)[C@H]1CC=C[C@@H]21
 : 21*	12*
> CN1C(=O)c2cc(C(=O)O)nn2CC1(C)C(=O)NC1CCCCC1 (stereo not drawn)
 : 0.4	-2
> CSc1nc2sc3c(c2c(=O)n1-c1ccccc1)CC(C(C)C)OC3 (stereo not drawn)
 : nt	-0.16
> CCS(=O)(=O)c1ncc(Cl)c(C(=O)Nc2sc3c(c2C(=O)NC)CCCC3)n1
 : 2.2	-0.1
> Cn1ncc2c(NCc3ccc(Cl)cc3)nc(NCCCO)nc21
 : 0.5	nt
> CCOC(=O)c1ncn2c1CN(C)C(=O)c1cc(F)ccc1-2
 : -0.55	-2.2
> c1ccc(N2CCN(c3ncnc4c3nc3n4CCCCC3)CC2)nc1
 : 1.2	nt
> CC1CCC(NC(=O)CN(C)S(=O)(=O)c2ccc3c(c2)CC(C)N3C(=O)C2CCC2)CC1 (stereo not drawn)
 : 0.83	nt
> CCCC(=O)NCCc1cc2c(OC)ccc(OC)c2[nH]c1=O
 : nt	-3.7
> CCSC1=NCN(Cc2cccs2)CN1
 : nt	-2.5
> O=C(Nc1c(C(=O)c2ccccc2)oc2ccccc12)c1cc(=O)c2ccccc2o1
 : 0.66	-0.63
> Cc1cccc(Cc2c(C)[nH]c(=O)c(C#N)c2C)c1
 : nt	-0.75
> COc1ccc2cc(NC(=O)NCc3cccs3)n(C)c2c1
 : -0.83	-1
> O=C(Cn1ncn2c(cc3sccc32)c1=O)NC1CCCC1
 : -1.3	-0.81
> CCCn1nc(-n2cnnc2)c(NS(=O)(=O)c2ccc(OC)cc2)c1C
 : 1.3	-3.6
> Cc1cccc(-n2c(=O)c3c(c4cc(C)ccc4n3C)n(Cc3cc(=O)n4ccccc4n3)c2=O)c1
 : 1.1	nt
> CC1CCN(C(=O)c2ccc3c(c2)nc2n3CCOC2)CC1
 : 1.1	nt
> COc1cc(Cl)c(NS(=O)(=O)c2ccc(-c3ccc(=O)[nH]n3)o2)c(OC)c1
 : 0.76	nt
> CCOc1ccc2nc(NC(=O)NCc3noc4ccccc34)sc2c1
 : 0.21	nt
> CCN(CC)S(=O)(=O)c1ccc2c(c1)N(CC(=O)NCC1CCCO1)C(=O)CO2 (stereo not drawn)
 : 1.8	0.81
> Cc1cc2c(cc3n2CC(C)(C(=O)NC2CCCCC2)N(CCN(C)C2CCCCC2)C3=O)o1 (stereo not drawn)
 : 2.5	nt
> CCOC(=O)C1=CC2(SC=C(C(=O)OCC)S2)C2=C(S1)C(C)(C)N(CC)c1ccccc12 (stereo not drawn)
 : nt	-0.48
> O=S(=O)(c1ccccc1)c1ccc(-c2ccn[nH]2)cc1
 : nt	-1.4
> O=C(Cn1c(=O)c2cccn2c2ccc(F)cc21)NCCC1=CCCCC1
 : 2.6	nt
> O=C1Cc2cc(S(=O)(=O)NCc3ccccn3)cc3c2N1CCC3
 : 1.1	nt
> OCCCc1nc2ccccc2n1C/C=C/c1ccccc1
 : 1.7	-0.9
> COC(=O)c1ccc(N2C(=O)C3ON(c4ccccc4)C(c4ccc(OC)cc4OC)C3C2=O)cc1 (stereo not drawn)
 : 1.6	-1.4
> COCCNc1nc(-c2ccc(OC)cc2)nc2ccccc12
 : -0.16	nt
> COc1ccc2c(c1)c(C(=O)ON1C(=O)CCC1=O)c(C)n2C1CC1
 : nt	0.43
> Cc1c(CNCCc2ccco2)c(C(=O)O)c(C)n1-c1ccc(Cl)cc1
 : 1.2	nt
> COc1cnc(CSc2ccccc2)cc1OCC(=O)N1CCc2ccccc21
 : 0.32	nt
> O=C(CN1C(=O)c2ccccc2S1(=O)=O)Nc1cccc(Cl)c1
 : nt	0.15
> Cc1noc(/C=C/c2ccco2)c1S(=O)(=O)N1CCCC(C(=O)N2CCCCC2)C1 (stereo not drawn)
 : 1.4	nt
> COc1cc(C2C(C(=O)OCC3CCCO3)=C(C)NC3=C2C(=O)CCC3)cc(Cl)c1O (stereo not drawn)
 : 0.53	-0.64
> C=CC(=C)CC(NC)c1ccccc1 (stereo not drawn)
 : 0.37	16*
> O=c1sc2ccccc2n1CCc1nnc(-c2ccccc2)o1
 : 1.6	-1.5
> Clc1ccc(CN2CCc3nc(Nc4ccc5c(c4)OCCO5)ncc3C2)cc1
 : 0.57	nt
> Cc1noc(C)c1S(=O)(=O)NCCc1csc2nc(-c3ccc(Cl)cc3)nn12
 : -0.76	nt
> Cc1ccc(-n2c(CC#N)n[nH]c2=S)c(C)c1
 : nt	-1.9
> CCOC(=O)c1nc(C)sc1-c1ccnn1S(=O)(=O)c1ccccc1C(F)(F)F
 : nt	-0.93
> CC(Oc1ccccc1)C(=O)Nc1nnc2n1CCS2 (stereo not drawn)
 : 0.73	nt
> NC(=O)CSc1ccc(-c2ccncc2)nn1
 : 1	nt
> Cc1sc2ncnc(Nc3ccc(F)cc3Cl)c2c1S(=O)(=O)N1CCC(C)CC1
 : nt	0.3
> Cn1c(C(=O)NCCc2ccc(S(N)(=O)=O)cc2)cc2sc(Cl)cc21
 : nt	0.15
> COC(=O)c1sccc1NC(=O)N1CCn2cccc2C1Cc1ccccc1 (stereo not drawn)
 : -2.1	nt
> Cc1ccc(C2/C(=C(\O)c3ccc(Cl)cc3)C(=O)C(=O)N2c2nccs2)cc1 (stereo not drawn)
 : -0.32	-0.79
> NC(=O)Cn1cnc2c(nnn2Cc2ccccc2F)c1=O
 : 1.2	0.59
> CN1C(=O)c2cc(C(=O)NC3CCCC3)nn2CC1(C)C(=O)NC1CCCC1 (stereo not drawn)
 : -0.52	nt
> Cc1c(C(=O)NC2CCCC(C)C2C)oc2ccc(S(=O)(=O)N3CCCC3)cc12 (stereo not drawn)
 : nt	-0.85
> CC1=C(C)CC2C(=O)N(c3ccc(C(C)C)cc3)C(=O)C2C1 (stereo not drawn)
 : -1	-0.73
> Cc1nc(/N=C(\N)NC(=O)Nc2ccc(Cl)cc2)sc1Br
 : nt	-0.15
> Cc1ccccc1Nc1c(-c2ccccc2O)nc2cnccn12
 : 1.9	-0.49

# Going on with the list.
# Value order – HIV TAR-Tat	CDC25B CDK2 inh
> CC1(C)COC(C2CCNCC2)OC1
 : nt	0.84
> O=C(NCc1ccco1)c1c[nH]c2ccc(S(=O)(=O)N3CCOCC3)cc2c1=O
 : 1.2	nt
> CCOC(=O)CSc1ccc2nnc(CCNS(=O)(=O)c3ccccc3)n2n1
 : 1.8	nt
> CCOc1ccc(Br)cc1CNCCCSc1nnnn1-c1ccccc1
 : 1.2	-0.62
> CCS(=O)(=O)c1nc(S(=O)(=O)c2ccc(C)cc2)c(N2CCN(C)CC2)s1
 : -0.41	-0.52
> COC(=O)c1c(NC(=O)c2cc(C)on2)sc2c1-c1ccc(OC)cc1CC2
 : 0.77	nt
> COc1ccc(OC)c(C2NC(=O)c3n[nH]c(-c4cccs4)c32)c1 (stereo not drawn)
 : 0.37	-0.25
> CCOC(=O)c1nc(NC(C)c2ccccc2)c2ccccc2n1 (stereo not drawn)
 : 1.2	nt
> O=C(Nc1ccc(F)c(Cl)c1)C(=O)Nc1ccc2nc3n(c(=O)c2c1)CCCCC3
 : 1.3	0.32
> COc1ccc(NC(=O)[C@H](CCS(C)(=O)=O)N2Cc3ccccc3C2=O)cc1OC
 : 1.1	-1.3
> CC1=C(C(=O)Nc2cc(Cl)ccc2C(=O)NC2CCCC2)SCCO1
 : 1.8	nt
> COC(=O)COc1ccc(SC(F)(F)F)cc1
 : nt	-1.3
> Cc1c(-c2nc(-c3ccccc3Cl)no2)nnn1-c1cc(F)ccc1F
 : 0.62	nt
> O=C(Nc1nnc(C2CC2)s1)c1ccc(Oc2cc(Cl)cc(Cl)c2)o1
 : nt	-1.4
> COc1cc(OC)c(NS(=O)(=O)c2cc(-c3cnc(C)o3)ccc2OC)cc1Cl
 : 1.2	nt
> Cc1cccn2cc(CNS(=O)(=O)c3ccccc3F)nc12
 : 1.2	-0.63
> COc1cccc(-c2nnc(SCc3ccc(Br)cc3)o2)c1
 : 1.2	-1
> Brc1ccc(-c2nn3c(Cn4cnc5ccccc54)nnc3s2)cc1
 : 0.05	-0.99
> CC1=C(C(=O)OC(C)C)C(c2cccs2)C2=C(CC(c3ccccc3)CC2=O)N1 (stereo not drawn)
 : 0.92	0.27
> COC(=O)C1=C(OC(=O)C(C)C)c2ccccc2S(=O)(=O)N1C
 : 1.4	-1.2
> COCCCNC(=O)c1cc2oc3ccccc3c2n1C
 : 1.3	-2.8
> COC(=O)C1=C(C)Nc2nc3ccccc3n2C1c1ccncc1 (stereo not drawn)
 : 0.49	-1
